# Bioassay records deposited in PubChem BioAssay by Southern Research Specialized Biocontainment Screening Center.
# Mtb betalactam: beta-lactam sensitization of Mtb H37Rv, H37Rv; M. tuberculosis H37Rv growth with meropenem, percent inhibition; hits of this screen are not shown here; 0.27% of 330,000 active; inhibition, % at 25 µM;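 active = about 74% or more and at least 40 points above the plate without the antibiotic, then above 30% in a dose series; inconclusive = first-round hits that could not be retested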;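 note: growth measured after seven days incubation then overnight dye step; 0% = bacteria only wells and 100% = bacteria with antibiotic; twin plates without the antibiotic show which effects depend on it; some results filed as inactive read as strong as hits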
# An asterisk follows results filed as active; ? = inconclusive. Some of the compounds tested. The share of hits here may be higher or lower than overall.
molecule,Mtb betalactam
N#C/C(N)=C(/N)C#N,-9
CC(=O)N(C)c1ccc(NC(=O)C(c2ccccc2)c2ccccc2)cc1,-10
Cc1nnc(SCC(=O)NCC2COc3ccccc3O2)s1 (stereo not given),4
COc1cc(C(C)=O)ccc1OCC(=O)NC(=O)Nc1ccc(C)cc1C,-4
CN(c1ccccc1)S(=O)(=O)c1cccc(NC(=O)Cc2ccc(Cl)cc2)c1,-8
CC(OC(=O)c1cc(S(=O)(=O)N2CCOCC2)ccc1Br)C(=O)N1CCOCC1 (stereo not given),0
CCOc1ccc(OCCCC(=O)ON=C(N)c2ccccc2C)cc1,1
C[C@H](CO)N1C[C@H](C)[C@@H](CN(C)S(=O)(=O)c2ccccc2)Oc2ccc(NC(=O)c3ccncc3)cc2C1=O,-8
C=CC[C@@H](CC(=O)N[C@H](CO)Cc1ccccc1)C(=O)N[C@@H](C)COC(=O)[C@@H](CC=C)CC(=O)OC(C)(C)C,-6
CCC(C)c1ccccc1N1CC(C(=O)N2CCN(C(=O)c3ccco3)CC2)CC1=O (stereo not given),-2
COc1ccc(C2=CCN3CCCCC3C2)c(-c2ccc(OC)c(OC)c2)c1 (stereo not given),9
O=C1c2ccccc2NC(c2ccc(-c3ccc(F)cc3)o2)N1O (stereo not given),-3
O=C(CCCOc1ccccc1)Nc1cccc(S(=O)(=O)N2CCOCC2)c1,-2
CN(CC(=O)Nc1ccc(F)c(F)c1)S(=O)(=O)c1cccs1,-10
CC(=O)Nc1ccc(S(=O)(=O)C(C#N)c2nc3ccccc3nc2NCCO)cc1 (stereo not given),-13
CCc1ccc(Nc2nnc(SC(C)C(=O)NC3CC3)s2)cc1 (stereo not given),-1
O=C(Nc1ccccc1)/C(=C/c1ccc(F)cc1)NC(=O)c1ccco1,-9
COc1ccc(NC(=O)c2cc3cc(OC)ccc3oc2=O)cc1,-6
COc1cc(C)ccc1OCC(=O)OCC(=O)NCC1CCCCC1,-2
CN(C(=O)c1ccc(F)cc1)c1ccc(OCC(=O)Nc2ccccc2C(=O)O)cc1,2
CC1CN(S(=O)(=O)c2cc(C(=O)N3CCCCC3C)ccc2Cl)CC(C)O1 (stereo not given),3
CCN(C[C@H]1N[C@@](C)(C(=O)OC)[C@H]2C(=O)N(C)C(=O)[C@@H]12)C(=O)Nc1ccccc1,-1
CSc1ccccc1NC(=O)CN(C)C(=O)CNc1ccc(C(F)(F)F)cc1[N+](=O)[O-],-5
CC1CCCCC1NC(=O)CN1C(=O)NC(C)(c2cccc(Br)c2)C1=O (stereo not given),3
CN(Cc1ccccc1)S(=O)(=O)c1ccc(Cl)c(C(=O)N2CCC(C(N)=O)CC2)c1,-16
Cc1nc(SCC(=O)NC2CCCCC2C)nc(C)c1C (stereo not given),-4
COc1cc(OC)c(NC(=O)CNC(=O)Cn2ccc3ccccc3c2=O)cc1Cl,-2
Cc1ccccc1C(C)NS(=O)(=O)c1ccc2c(c1)OCCO2 (stereo not given),-7
CCN1CCN(C(=O)C(C)Sc2nnc3nc(C)cc(C)n23)CC1 (stereo not given),4
O=C(CSc1nnc(C2CC2)n1C1CC1)Nc1cccc(Br)c1,-7
Cc1cc(C)cc(NC(=O)C2CCN(C(=O)c3cccs3)CC2)c1,-5
CC(C)NC(=O)Nc1ccc2c(c1)C(=O)N([C@H](C)CO)C[C@H](C)[C@@H](CN(C)S(=O)(=O)c1ccc(F)cc1)O2,1
CC[C@@H]1C=C(C(=O)O)[C@H](c2ccc3c(c2)OCO3)N1S(=O)(=O)c1ccc(C)cc1,4
COCc1nc2c([nH]1)c(=O)n(C)c(=O)n2CC(C)C,2
Cc1ccc(O)c(C)c1,-4
Cc1ccsc1C(=O)NCC(C)(C)N1CCOCC1,2
COc1ccc(CNC(=O)c2cccc(NC(=O)CC3SC(N4CCCCC4)=NC3=O)c2)cc1 (stereo not given),5
CCOc1ccc(CC(=O)NC2CCN(Cc3ccccc3)CC2)cc1,-3
O=C(CNc1cc(S(=O)(=O)N2CCOCC2)ccc1N1CCOCC1)Nc1cccc(C(F)(F)F)c1,-5
O=C(CN1C(=O)NC(c2ccccc2)(c2ccccc2)C1=O)NC1CCS(=O)(=O)C1 (stereo not given),3

# Another view of part of the listing above:
CC1CCCCC1NC(=O)CN1C(=O)NC(C)(c2cccc(Br)c2)C1=O (stereo not given)
  Mtb betalactam: 3

CC(C)NC(=O)Nc1ccc2c(c1)C(=O)N([C@H](C)CO)C[C@H](C)[C@@H](CN(C)S(=O)(=O)c1ccc(F)cc1)O2
  Mtb betalactam: 1

O=C(CNc1cc(S(=O)(=O)N2CCOCC2)ccc1N1CCOCC1)Nc1cccc(C(F)(F)F)c1
  Mtb betalactam: -5

CC[C@@H]1C=C(C(=O)O)[C@H](c2ccc3c(c2)OCO3)N1S(=O)(=O)c1ccc(C)cc1
  Mtb betalactam: 4

# Going on with the list:
molecule,Mtb betalactam
CC(C)C(NC(=O)c1ccc(C(C)(C)C)cc1)C(=O)N1CCC(C(N)=O)CC1 (stereo not given),1
COc1ccc(NC(=O)[C@@H]2CCCN2S(=O)(=O)c2ccccc2F)cc1S(=O)(=O)N1CCCCC1,-4
CCOc1ccc(COC(=O)C2CC(=O)N(CCc3ccccc3)C2)cc1OC (stereo not given),26
CCOC(=O)c1c(C)[nH]c(C(=O)OCC(=O)Nc2ccc(Cl)cn2)c1C,-8
O=C(CN1C(=O)NC2(CCCC2)C1=O)N1CCN(c2ccccc2Cl)CC1,-2
Cc1ccc(NC(=O)COC(=O)C2CSC3(C)CCC(=O)N23)c(C)c1 (stereo not given),6
O=C(Cc1c(F)cccc1Cl)NNC(=O)c1cccs1,-1
COc1ccc(-c2sc3ccc(OC)cc3c2-c2ccc(O)cc2)cc1,7
CC(=O)O[C@@]12CO[C@@H]1C[C@H](O)[C@@]1(C)C(=O)[C@H](O)C3=C(C)[C@@H](OC(=O)[C@H](O)[C@@H](NC(=O)c4ccccc4)c4ccccc4)C[C@@](O)([C@@H](OC(=O)c4ccccc4)C12)C3(C)C (stereo not given in full),0
COC(=O)c1ccccc1NS(C)(=O)=O,11
CCC(C)Sc1ccc([C@@H]2[C@H]3C(=O)N(C)C(=O)[C@H]3[C@]3(C(=O)OC)CCCN23)cc1 (stereo not given in full),-12
CCN1CCN(CCC(=O)Nc2ccc(F)c(F)c2)CC1,-2
CN(C)S(=O)(=O)c1cccc(NC(=O)CCNC(=O)Nc2ccccc2)c1,-2
Cc1ccc(S(=O)(=O)N(C)CC(=O)NNC(=O)CCC(=O)c2ccc(F)cc2)cc1,-3
O=C(NNC(=O)c1ccccc1F)c1ccc(S(=O)(=O)N2CCCC2)cc1,-6
CN(C)S(=O)(=O)c1ccc(C(=O)NC(=O)CSc2nnnn2C)cc1,0
CC(=O)c1cc2c(cc1NC(=O)c1ccc(C)cc1)OCCO2,0
CC1CCN(c2ccc3c(c2)S(=O)(=O)c2cccc(C(=O)NC[C@@H]4CCCO4)c2C3=O)CC1,-3
C[C@H](CO)N1C[C@H](C)[C@@H](CN(C)C(=O)Nc2ccc3c(c2)OCO3)Oc2c(NS(=O)(=O)c3ccccc3)cccc2C1=O,4
Cc1[nH]c2ccccc2c1C(=O)COC(=O)c1nccnc1N,6
COc1ccccc1C(=O)NCC(=O)NCCSc1ccc(Br)cc1,-6
Cc1ccc(C(=O)COC(=O)COc2ccccc2O)cc1C,-3
CCNS(=O)(=O)c1ccc(CCC(=O)Nc2ccc3c(c2)OCCO3)cc1,-8
COc1ccccc1CNC(=O)CCN=C1NS(=O)(=O)c2ccccc21,-12
C/C(CC(=O)Nc1cc(C)ccn1)=N\NC(=O)c1ccc(C(C)(C)C)cc1,3
COc1ccc([C@H]2CC(=O)C=C(c3ccc(Cl)c(C(F)(F)F)c3)C2)cc1,22
COc1ccc(NS(=O)(=O)c2ccc(F)c(F)c2F)cc1S(=O)(=O)N1CCOCC1,-7
C1=C(c2cc3ccccc3cn2)CCCC1,9
CCOC(=O)N1CCC(NC(=O)CC2C(=O)NCCN2Cc2ccccc2)CC1 (stereo not given),?
CC(C)NC(=O)CSc1ccccc1C(=O)N1CCN(S(=O)(=O)/C=C/c2ccccc2)CC1,3
CCCN(CC(=O)Nc1ccccc1OC)C(=O)CSc1ccc(Br)cc1C,-2
O=C(NCc1cccnc1)C1CCN(S(=O)(=O)c2cccc(C(F)(F)F)c2)CC1,-9
O=C(COC(=O)c1cc(Cl)nc(Cl)c1)NCc1ccc2c(c1)OCO2,0
O=C(COc1ccc(Cl)cc1)NN=C1CCCCCCC1,?
N#Cc1cccc(NC(=O)c2ccc(S(=O)(=O)N3CCOCC3)cc2)c1,-2
CN(C(=O)c1ccc(NC(=O)C2CCN(C(=O)OC(C)(C)C)CC2)cc1)C1CC1,10
COc1ccccc1/C=C/C(=O)OCC(=O)NC(=O)NC1CCCC1,26
O=C(CCS(=O)(=O)c1ccccc1)NNC(=O)COc1ccc(F)cc1,2
COc1ccccc1NC(=O)/C(N=Nc1ccc(C)c(S(=O)(=O)Nc2ccccc2Cl)c1)=C(\C)O,-10
CCOC(=O)C1=C(C)Nc2ccccc2N=C1NC(=O)C1CCN(C(=O)c2ccccc2C)CC1,6

# The closing 3 compounds of the part above come first, to join the parts.
molecule,Mtb betalactam
O=C(CCS(=O)(=O)c1ccccc1)NNC(=O)COc1ccc(F)cc1,2
COc1ccccc1NC(=O)/C(N=Nc1ccc(C)c(S(=O)(=O)Nc2ccccc2Cl)c1)=C(\C)O,-10
CCOC(=O)C1=C(C)Nc2ccccc2N=C1NC(=O)C1CCN(C(=O)c2ccccc2C)CC1,6
CC1(C)C(=O)Nc2ccccc2N1C(=O)COC(=O)CSc1ccc(Cl)cc1,5
CCN(CC(=O)Nc1ccc(OC)cc1)C(=O)Cc1ccsc1,3
Cc1ccc(S(=O)(=O)N2[C@@H](c3ccc(Br)cc3)C(C(=O)O)=CC[C@H]2c2ccc(Cl)cc2)cc1,7
C[C@@H]1CN([C@@H](C)CO)C(=O)c2cc(NS(C)(=O)=O)ccc2O[C@@H]1CN(C)S(=O)(=O)c1ccccc1,0
Cc1cc(C)c(S(=O)(=O)N2CCN(C(=O)c3cc(=O)[nH]c4ccccc34)CC2)c(C)c1,-1
C/C(=N/NC(=O)c1ccc(C)s1)c1cccc(NC(=O)c2ccoc2C)c1,2
N#Cc1ccccc1OCC(=O)Nc1cccc(S(=O)(=O)N2CCCC2)c1,-7
O=C(COC(=O)Cc1ccsc1)NNC(=O)c1ccccc1,2
COc1ccc(C2=Nn3c(nnc3-c3ccccc3Cl)SC2)cc1OC1CCOC1 (stereo not given),-1
O=C(Nc1cc(Cl)c(Cl)cc1Cl)c1cccnc1,16
CC1(NC(=O)c2ccccc2)CCN(CCc2cccs2)C1=O (stereo not given),2
CCCCn1c(N)c(N(CCOC)C(=O)CSc2nnc(-c3ccco3)n2CC)c(=O)[nH]c1=O,1
COc1ccc(C2(C)NC(=O)N(CC(=O)N3CCc4ccccc43)C2=O)cc1OC (stereo not given),3
CS(=O)(=O)c1ccc(C(=O)OCC(=O)NC(=O)C2COc3ccccc3O2)cc1[N+](=O)[O-] (stereo not given),-2
Cc1cnc(C(=O)OC(C(=O)c2ccccc2)c2ccccc2)cn1 (stereo not given),-14
O=C(NCCC(=O)N1CCCCCCC1)c1ccc(Br)cc1,-10
CN(C(=O)COC(=O)c1ccc(Cl)nc1)c1c(N)n(Cc2ccccc2)c(=O)[nH]c1=O,-10
COc1ccc(-c2ccc3oc(-c4ccsc4)c(-c4ccc(Br)nc4)c3c2)cc1,-3
CCC(CO)Oc1cc(NCc2ccc(C)cc2)c2ncn(C(C)C)c2c1 (stereo not given),-5
CN1CC(=O)N2[C@H]3c4ccccc4OC[C@@H]3[C@H](c3ccccc3)[C@]2(C)C1=O,-7
CSc1nc(N)nc2c1ncn2CC(=O)Nc1ccc(C)c(C)c1,45
CC1(C)C[C@H]2C3=CCC4[C@@]5(C)CC[C@H](O[C@@H]6O[C@H](C(=O)O)[C@@H](O)[C@H](O)[C@H]6O)[C@@](C)(CO)C5CC[C@@]4(C)[C@]3(C)C[C@H](O)[C@@]2(CO)[C@@H](O)[C@@H]1O (stereo not given in full),2
CCC(C)C(NC(=O)c1ccccc1)C(=O)Nc1ccc(S(=O)(=O)Nc2cc(C)nc(C)n2)cc1 (stereo not given),2
COCCN(CCOC)S(=O)(=O)c1ccc(NC(=O)c2cnccn2)cc1,3
CC(C)n1nnnc1SCC(=O)N1CCN(Cc2ccc3c(c2)OCCO3)CC1,-1
Cc1ccc(NC(=O)CN(C)C(=O)Cn2nnc(-c3ccccc3C)n2)cc1,-2
COc1ccccc1N1CC(C(=O)OCC(=O)Nc2c(C)cccc2C)CC1=O (stereo not given),2
CC1CN(S(=O)(=O)c2cccc(C(=O)NCCc3ccc(S(N)(=O)=O)cc3)c2)CC(C)O1 (stereo not given),3
COc1ccccc1OCCC(=O)Nc1cccc(S(=O)(=O)N2CCOCC2)c1,-4
CCN(C(=O)CSc1nnc(-c2ccc3c(c2)OCO3)o1)C1CCS(=O)(=O)C1 (stereo not given),1
COC(=O)C1=C(c2ccc3ccccc3c2)C[C@@H]2CC[C@H]1N2C(=O)NC1CCCCC1,6
CCN(Cc1ccncc1)Cc1ccc(OC)c(OC)c1,0
CCc1sc(C(=O)N2CCN(C(=O)c3ccccc3)CC2)cc1C,0
CN1C(=O)c2cccc3c(S(=O)(=O)N(C)C)ccc1c23,4
N#CC1(NC(=O)CSc2nc3ccccc3s2)CCCCC1,-9
